Screens as filed in PubChem.
CDC25B CDK2 inh: human CDC25B-CDK2/CyclinA binding inhibition | actives 0.72% (n = 94,000) | z-score (concentration not given with the values) | HTRF CDC25B-CDK2/CyclinA binding, anti-His/anti-Flag; active compounds read high | P30305+P24941;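 also: score is relative to mean and SD of negative controls; strong numbers were not always called active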
TAR Tat displ: HIV-1 TAR-Tat binding disruption. HIV-1 TAR RNA, Tat peptide displacement FRET; active compounds read high. z-score (concentration not given with the values). actives 0.6% (n = 100,000). AID 1259389;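 also: score is relative to mean and SD of negative controls; some compounds called inactive have numbers as strong as hits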
Active calls of the source: *; / = not tested or not shown.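 The calls were made as follows: active = z-score from 3 up in half or more of its runs; inactive = the rest.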

SMILES	CDC25B CDK2 inh	TAR Tat displ
CCc1nc2nc(C)cc(Nc3ccc(Br)cc3F)n2n1	1.43	1.11
O=C(c1csnn1)N1CCN(c2ccc(F)cc2)CC1	-0.71	-0.07
CC(=O)N1CCOc2ccc(S(=O)(=O)N3CCCCC3)cc21	-2.11	1.5
CC(C)c1ccc(-c2noc(N3CCC(C(=O)N4CCN(C5CCCCC5)CC4)CC3)n2)cc1	/	-1.24
Cc1cc2c(cc1C)NC(c1cc(F)ccc1F)C1=C(CC(C)(C)CC1=O)N2 (stereo not drawn)	1.6	-0.45
Cc1ccc2nc(-n3nc(C)c4c3NC(=O)CC4c3cc(F)cc(F)c3)sc2c1 (stereo not drawn)	/	1.8
CCC(C)(C)NS(=O)(=O)c1ccc2c(c1)CC(C)N2C(=O)C1CC1 (stereo not drawn)	/	0.6
Cc1ccc(Cl)cc1S(=O)(=O)N1CCN(S(=O)(=O)c2cc(Cl)ccc2C)C(C)C1 (stereo not drawn)	-1.69	-0.08
Cc1ccc(-n2ncc3c(NCCCN(C)C)ncnc32)cc1Cl	/	0.84
CC(=O)Nc1ccc(S(=O)(=O)NCc2cc(F)cc3c2OCOC3)cc1Cl	3.46	/
Nc1sc(-c2ccccc2)cc1C(=O)N/N=C/c1ccccc1Cl	-1.62	/
Cc1n[nH]c(C)c1C(=O)CC1(O)C(=O)N(CCc2ccccc2)c2ccccc21 (stereo not drawn)	-3.32	-0.59
COc1ccc(Cc2nnc(-c3ccccc3)o2)cc1OC	-1.36	2.65
Cc1ccc(-c2nc(SCC(N)=O)[nH]c(=O)c2C#N)cc1	-0.32	0.05
NC(=O)CSc1nc2c(N)ncnc2n1Cc1ccccc1	-1.29	1.41
Cc1c(-c2ccn[nH]2)cnn1-c1c(Cl)cc(Cl)cc1Cl	-1.73	/
O=C(c1ccc(CS(=O)c2ccc(Cl)cc2)o1)N1CCN(c2ccccn2)CC1 (stereo not drawn)	-0.39	0.41
CCOC(=O)c1ccc(N2CC(O)=C(c3nc4ccccc4n3C)C2=N)cc1	-1.19	2.41
CCCc1cc(=O)n2[nH]c(NC(=O)CC(C)C)nc2n1	-1.16	1.95
CN(C)C(=O)C1(C)CSSC(C)(C(=O)N(C)C)CSSC(C)(C(=O)N(C)C)CSS1 (stereo not drawn)	-2.13	/
CSc1nc2c(c(=O)n1C1CCOC(C)(C)C1)C1(CCCCC1)Cc1ccccc1-2 (stereo not drawn)	-1.77	/
O=C1Nc2ccc(Br)cc2C(c2ccccc2)C1N1CCCCC1 (stereo not drawn)	0.36	-0.27
Cc1cc2c(cc1S(=O)(=O)N(Cc1ccco1)CC1CCCO1)OCC(=O)N2 (stereo not drawn)	/	2.52
CCCNC(=O)C1CCCN(c2nc(C)nc3onc(CC)c23)C1 (stereo not drawn)	/	2.58
COc1ccc(/C=C/c2nc(C#N)c(NCCN(C)C)o2)cc1OC	-1.19	0.11
More records.
SMILES	CDC25B CDK2 inh	TAR Tat displ
Cc1nc2sc(C(c3ccc(F)cc3)N3CCN(Cc4ccccc4)CC3)c(O)n2n1 (stereo not drawn)	-1.81	/
COc1cc(OC)cc(N2C(=O)COc3ccc4ccccc4c3C2C(=O)NC2CCCC2)c1 (stereo not drawn)	/	0.88
O=C(Cn1cc(S(=O)(=O)Cc2ccccc2F)c2ccccc21)NCC1CCCO1 (stereo not drawn)	/	-1.71
CCN1CCCC1CNC(=O)CN(C)c1nnc(N2CCCC2=O)s1 (stereo not drawn)	-3.17	2.3
COc1ccc2c(c1)CC(NC(=O)NCCC(C)C)CO2 (stereo not drawn)	/	1.55
CCNc1nc(N(CC)CC)nc2c1cnn2C	/	0.88
CCC(C)C1C(C#N)=C(N)Oc2n[nH]c(-c3ccccc3)c21 (stereo not drawn)	0.18	1.3
Cn1c(SCC(=O)N2CCCCC2)nc2c(c1=O)SCC2	0.37	0.17
CCCN1CCN(c2nnc(-n3cccc3CNc3cc(OC)ccc3OC)s2)CC1	/	1.41
COc1ccc(-c2nnc3n2N=C(c2ccc(OC)c(OC)c2)CS3)cc1	/	0.36
Cc1nn(C(C)C(=O)Nc2ccc3c(c2)OCCO3)c(=O)c2nn(-c3ccccc3)c(C)c12 (stereo not drawn)	/	-0.58
Brc1ccc2nc(SCCOc3ccccc3)[nH]c2c1	-0.81	-0.78
Cc1[nH]c(C)c(S(=O)(=O)N2CCN(c3ncccn3)CC2)c1C(=O)N1CCCC1	/	-0.26
CCCSc1nnc(SCC(N)=O)s1	-0.87	1.94
N#Cc1c2c(c(NCCN3CCOCC3)n3c1nc1ccccc13)CCCC2	-2.52	-0.29
CC1(C)c2ssc(=S)c2-c2ccccc2N1C(=O)C(Cc1ccccc1)N1C(=O)c2ccccc2C1=O (stereo not drawn)	-2.78	/
CS(=O)(=O)N(CC(=O)N1CCN(c2ccccc2)CC1)c1ccc(Br)cc1	-1.56	/
O=C(Nc1nccs1)c1cccc(-c2nc(-c3ccccc3)no2)c1	/	0.23
COCCCNC(=O)C1CCCN(S(C)(=O)=O)C1 (stereo not drawn)	/	1.23
CCCN1CCN(C2=NS(=O)(=O)C(c3ccc(C)c(C)c3)=C2C)CC1	-1.06	-0.32
COc1ccc(/C(O)=C2\C(=O)C(=O)N(c3ccccn3)C2c2cccc(Cl)c2)cc1 (stereo not drawn)	-3.26	-1.46
Cn1ccc2cc(S(=O)(=O)N3CCN(C(=O)Nc4cccc(Cl)c4)CC3)ccc21	-2.44	-0.72
O=C(c1ccc2c(c1)sc1nc(-c3ccccc3)cn12)N1CCCC1	/	2.61
O=C(CN1C(C(=O)c2ccccc2)=C(N2CCOCC2)c2ccccc2S1(=O)=O)c1ccccc1	-1.1	-0.47
COc1ccc(Oc2nc(-c3ccccc3)ns2)cc1	1.3	/
Other results
SMILES	CDC25B CDK2 inh	TAR Tat displ
Cn1c(=O)[nH]c(=O)c2c1nc(N1CCNCC1)n2CCCc1ccccc1	-0.77	0.43
O=C(CS(=O)(=O)c1cccc2nsnc12)N1CCCc2ccccc21	/	0.97
C=CCSc1nnc2c(n1)OC(c1ccc(OC)cc1OC)Nc1ccccc1-2 (stereo not drawn)	-0.62	0.22
O=S(=O)(Nc1cccc(-c2ccc(N3CCOCC3)nn2)c1)c1cccnc1	/	1.18
CCCCOC(=O)C1=C(C)NC2=C(C(=O)CC(C)(C)C2)C1c1cc2c(cc1Cl)OCO2 (stereo not drawn)	-2.58	0.51
Cc1cccc(C(=O)Nc2c(C)nc3sccn3c2=O)c1	/	2.03
Cc1cc2nc(CSc3nnc(NC(=O)c4cccs4)s3)cc(=O)n2o1	/	4.05
O=C(NCc1ccccn1)C1(c2cccs2)CCOCC1	/	1.23
Cc1cccc(NC(=O)c2ccc(-c3ccccc3)s2)c1C(=O)O	-2.3	/
CC1(C)Cc2nc3c(cc2CO1)c(=O)n(Cc1ccco1)c(=O)n3Cc1ccc(F)cc1	-0.66	-0.01
Cc1cc(=O)nc2c3ccccc3n(CC(=O)N3CCN(C)CC3)n12	0.14	1.35
COc1c(C(=O)NCc2ccc(Cl)cc2)csc1Cl	-0.4	/
O=C(O)c1ccc2c(c1)NC(=O)C(CS(=O)(=O)Cc1cccc(F)c1)N2 (stereo not drawn)	/	0.21
CC1=C(C(=O)OCCOC(C)C)C(c2cccc(F)c2)C2=C(CCCC2=O)N1 (stereo not drawn)	-0.24	2.28
Fc1cccc(Nc2ncnc3c2cnn3-c2ccccc2)c1	/	0.1
COCCCNC(=O)C1CCCN(c2nnc(N3CCCCC3=O)s2)C1 (stereo not drawn)	/	1.64
O=C1OC(Nc2ccccc2Sc2ccc([N+](=O)[O-])cc2[N+](=O)[O-])c2ccccc21 (stereo not drawn)	-1.69	/
N#Cc1c(OC(=O)c2ccco2)ccc(OC(=O)c2ccco2)c1C#N	-0.22	/
O=C(Nc1sc2c(c1C(=O)N1CCCCC1)CCCCC2)c1cccs1	-0.34	/
Cc1nc(C)c(-c2csc(Nc3ccc(O)c(C(=O)O)c3)n2)s1	-1.43	1.11
CCn1cc(C(=O)O)c(=O)c2cc(F)c(F)cc21	-2.23	/
Fc1ccc(N/N=C/c2sccc2Oc2ccccc2)c(F)c1	-0.41	/
CN1CCN(C(=O)CCn2c(=O)oc3ccccc32)CC1	-0.23	/
Cc1cc(S(=O)(=O)c2ccc(Cl)c(Cl)c2)cc(C)c1F	-1.07	/
COCCNC(=O)c1c(O)nc2ccccn2c1=O	-0.95	1.68
Next structures
SMILES	CDC25B CDK2 inh	TAR Tat displ
Cc1nc(N2CCCCC2)cc(N2CCN(S(=O)(=O)c3cccc(F)c3)CC2)n1	-0.43	0.41
Fc1ccc(NCc2cccn2-c2nnc(N3CCOCC3)s2)cc1	/	1.75
CC1(C)CC(=O)C2=C(C1)Nc1ccccc1N(CC(=O)NC1CCCC1)C2c1ccco1 (stereo not drawn)	/	-8.91
COc1nc(C)ccc1-c1noc(-c2cccs2)n1	0.51	0
CCOC(=O)c1cc(C)n(-c2cccc([N+](=O)[O-])c2)c1-c1ccccc1	-0.68	/
O=C1CCc2cc(S(=O)(=O)N3CCC(c4ccncc4)CC3)ccc2N1	/	1.12
CC(=O)OCCNc1cc(N2CC(C)CC(C)C2)c2noc3c2c1C(=O)c1ccccc1-3 (stereo not drawn)	-2.73	-6.26
O=c1c2cccnc2ncn1CCCN1CCN(c2cccc(Cl)c2)CC1	-1.13	/
Cc1cccc(-n2cc(-c3ccccc3)c3c(NCCOCCO)ncnc32)c1	-2.39	/
COC(=O)c1cc2c(s1)CS(=O)(=O)C2	-0.94	/
O=c1c2c(-c3ccc(Cl)cc3)noc2ncn1Cc1cccc(Cl)c1	/	1.12
COC(=O)c1c(-c2ccc(C(C)(C)C)cc2)csc1NC(=O)C1C2CCC(O2)C1C(=O)O (stereo not drawn)	-2.35	/
CCc1cc(=O)oc2cc(C)c3c(C)c(C)oc3c12	-1.05	/
CCC(C)NC(=O)c1cnn(-c2ccc(F)cc2)c1-n1cccc1 (stereo not drawn)	/	0.2
CN(C)/N=C(\N)c1ccc(Cl)cc1	-1.09	/
CCOC(=O)c1cnc(SCC(=O)NC(C)(C)C)nc1N	/	0.97
NC(=O)c1cc(S(=O)(=O)NCCCN(Cc2ccco2)C2CCCC2)cs1	/	0.33
CCC(=O)N1c2ccc(S(=O)(=O)N3CCCCC3)cc2CC1C(=O)NC1CCCCC1 (stereo not drawn)	/	1.19
O=C(O)CC(Cc1ccccc1)c1ccco1 (stereo not drawn)	-0.87	-0.84
Cc1cc(CN(C)Cc2ccccc2)cs1	/	0.65
CC1(C)CC2(CCO1)N1CC3(C)CN2CC(C)(C1)C3=O (stereo not drawn)	-0.15	/
O=C(CCCc1c[nH]c2ccccc12)NCCc1c[nH]c2ccccc12	/	1.16
COc1cc2[nH]c(=O)n3nc(-c4ccccc4)nc3c2cc1OC	-1.01	/
O=C(CN1C(=O)c2ccccc2C1=O)NCc1ccc2c(c1)OCO2	0.05	/
CN(CCNC(=O)c1c2c(nc3ccccc13)C(=O)N(C1CCCCC1)C2)C1CCCCC1	/	0.98

A section of the results above:
SMILES	CDC25B CDK2 inh	TAR Tat displ
O=c1c2cccnc2ncn1CCCN1CCN(c2cccc(Cl)c2)CC1	-1.13	/
Cc1cccc(-n2cc(-c3ccccc3)c3c(NCCOCCO)ncnc32)c1	-2.39	/
COC(=O)c1cc2c(s1)CS(=O)(=O)C2	-0.94	/
O=c1c2c(-c3ccc(Cl)cc3)noc2ncn1Cc1cccc(Cl)c1	/	1.12
COC(=O)c1c(-c2ccc(C(C)(C)C)cc2)csc1NC(=O)C1C2CCC(O2)C1C(=O)O (stereo not drawn)	-2.35	/
CCc1cc(=O)oc2cc(C)c3c(C)c(C)oc3c12	-1.05	/
CCC(C)NC(=O)c1cnn(-c2ccc(F)cc2)c1-n1cccc1 (stereo not drawn)	/	0.2
CN(C)/N=C(\N)c1ccc(Cl)cc1	-1.09	/
CCOC(=O)c1cnc(SCC(=O)NC(C)(C)C)nc1N	/	0.97
NC(=O)c1cc(S(=O)(=O)NCCCN(Cc2ccco2)C2CCCC2)cs1	/	0.33
CCC(=O)N1c2ccc(S(=O)(=O)N3CCCCC3)cc2CC1C(=O)NC1CCCCC1 (stereo not drawn)	/	1.19
O=C(O)CC(Cc1ccccc1)c1ccco1 (stereo not drawn)	-0.87	-0.84
Cc1cc(CN(C)Cc2ccccc2)cs1	/	0.65
CC1(C)CC2(CCO1)N1CC3(C)CN2CC(C)(C1)C3=O (stereo not drawn)	-0.15	/
O=C(CCCc1c[nH]c2ccccc12)NCCc1c[nH]c2ccccc12	/	1.16
COc1cc2[nH]c(=O)n3nc(-c4ccccc4)nc3c2cc1OC	-1.01	/

The listing continues.
SMILES	CDC25B CDK2 inh	TAR Tat displ
Fc1ccc(-c2nnc3sc(CN4CCOCC4)cn23)cc1	-0.08	-0.26
CC1Cc2ccccc2N1c1c(-c2ccc(Cl)cc2)c(=O)c1=O (stereo not drawn)	/	0.68
c1ccc(OCCOc2ncnc3c2oc2ccccc23)cc1	/	1.84
Cc1sc2nc(CNc3ccc(F)cc3)[nH]c(=O)c2c1C	-0.83	-4.85
CCc1nc(-c2cc3cc(C)ccc3[nH]c2=O)no1	0.16	0.28
COCCNC(=O)CSc1nc(-c2ccc(OC)cc2)nc2cc(=O)[nH]n12	/	1.37
Cc1cccc(-n2nnc(-c3nc(-c4cccnc4)no3)c2N)c1C	/	0.35
Fc1ccc(-c2csc3ncnc(NC4CCCCC4)c23)cc1	/	0.65
O=C(Cn1ncc2c([nH]c3ccccc32)c1=O)N1CCc2ccccc2C1	/	1.01
O=C(NC1Cc2ccccc2C1)c1ccc(Oc2cc(Cl)cc(Cl)c2)o1	-0.26	/
CCc1cc2c3c([nH]c2cc1S(=O)(=O)Nc1cc(OC)cc(OC)c1)CC(C)(C)CC3=O	/	2.8
Nc1ccc(O)c(-c2nc3ccc(N)cc3s2)c1	2.3	35.9*
O=C(NCc1ccc2c(c1)OCO2)c1cnc2sc3c(n2c1=O)CCCC3	/	1.93
Cc1cccn2c(=O)cc(COc3ccc(NC(=O)C(C)(C)C)cc3)nc12	/	0.62
